# Mtb RmlCD inh = M. tuberculosis RmlC/RmlD inhibition; inhibition, % at 3.6 µM; P9WH09+P9WH11; 160,000 tested, 0.03% active; RmlC+RmlD coupled enzyme assay, percent inhibition; primary screen in compound mixtures; AID 1533; in the data active means inhibition mostly above about 34%, no sharp cut-off; only retested compounds are shown here; further: some results filed as inactive read as strong as hits
# Target sequence (P9WH09 whole entry, looked up): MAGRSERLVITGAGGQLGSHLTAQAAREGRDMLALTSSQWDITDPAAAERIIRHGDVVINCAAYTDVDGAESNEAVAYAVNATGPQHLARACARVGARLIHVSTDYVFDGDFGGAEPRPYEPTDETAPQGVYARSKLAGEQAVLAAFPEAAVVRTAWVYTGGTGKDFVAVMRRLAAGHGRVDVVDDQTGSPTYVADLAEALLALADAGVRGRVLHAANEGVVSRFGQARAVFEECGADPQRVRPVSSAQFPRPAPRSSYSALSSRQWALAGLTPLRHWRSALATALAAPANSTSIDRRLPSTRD
# Target sequence (P9WH11 whole entry, looked up): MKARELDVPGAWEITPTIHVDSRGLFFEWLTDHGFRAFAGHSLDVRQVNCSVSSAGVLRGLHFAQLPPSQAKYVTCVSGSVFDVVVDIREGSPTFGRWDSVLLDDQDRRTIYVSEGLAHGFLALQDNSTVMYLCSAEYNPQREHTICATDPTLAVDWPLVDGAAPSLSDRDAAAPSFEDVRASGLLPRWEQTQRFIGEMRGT
# Mtb RmlCD inh retest = further read-out of Mtb RmlCD inh, marked with its call; inhibition, %; measured here: mean retest inhibition;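 single compounds in two wells; values far above 100% likely come from compound fluorescence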
# Numbers without * were called inactive. Only part of the results is shown; rates above refer to the full screens.
mol	Mtb RmlCD inh	Mtb RmlCD inh retest
Cc1ccc(-c2nn(C)c(=O)c3ccccc23)cc1CNC(=O)c1ccccc1	76	0
NC(=O)COC(=O)c1cccc(S(=O)(=O)N2CCCCC2)c1	63	-6
CCCc1nnc(NC(=O)CCC(=O)NCc2ccc(OC)cc2)s1	58	14
CN(C)C=Nc1c(Br)cc(Br)c2nonc12	45	4
O=C(N/N=C/C1CC2C=CC1C2)c1ccccc1O (stereo not drawn)	56	-13
CCOC(=O)N1CCN(C2OC(=O)c3ccccc32)CC1 (stereo not drawn)	76	-1
CCn1c(C)nc2cc(S(=O)(=O)Nc3ccc(C)cc3)ccc21	36	10
O=C(Cn1ncn2c(cc3ccccc32)c1=O)NCCC1=CCCCC1	70	-9

mol	Mtb RmlCD inh	Mtb RmlCD inh retest
O=C1C2C3C=CC(C3)C2C(=O)N1Nc1ccccc1 (stereo not drawn)	88	-35
Cc1ccc(OCCN2C(=O)S/C(=C\c3ccc(C)o3)C2=O)cc1	59	3
O=C(CSc1ccc2nnc(-c3ccc(F)cc3)n2n1)N1CCCc2ccccc21	83	4
CC1CCC(C(C)C)C(OCC[N+](C)(C)C)C1 (stereo not drawn)	34	-5
O=C(Nn1c(-c2ccccc2)nc2ccccc2c1=O)c1ccc([N+](=O)[O-])cc1	60	-2
COc1ccc(-c2cc3ccccc3[nH]2)cc1	78	-7
NC(=O)c1ccc[n+](CC(=O)c2ccc(F)cc2)c1	67	-8
Cc1nc(OCc2ccccc2)c2sc3nc4c(cc3c2n1)COC(C)(C)C4	49	-6

mol	Mtb RmlCD inh	Mtb RmlCD inh retest
O=C(N/N=C/c1ccc([N+](=O)[O-])cc1)c1cc2ccccc2o1	41	-4
CN1/C(=C\C=C2C(=O)NC(=S)NC2=O)C(C)(C)c2ccccc21	86	14
Cc1ccc2c(c1)C1CN(C)CCC1N2C(=O)c1ccccc1NS(=O)(=O)c1ccc(F)cc1C (stereo not drawn)	74	-4
O=C(COc1cccnc1[N+](=O)[O-])Nc1ccc2c(c1)CCC2	44	4
CN1CCCC(OC(=O)c2cccc(Cl)c2)C1 (stereo not drawn)	70	12
O=S(=O)(c1ccc(F)cc1)N1CCN(Cc2ccccn2)CC1	57	5
CN(C)c1oc(-c2ccccc2[N+](=O)[O-])nc1C#N	33	-5
COc1cc(S(=O)(=O)n2ccnc2)ccc1Br	43	5

# Continued, starting with the last 2 of the part before.
mol	Mtb RmlCD inh	Mtb RmlCD inh retest
CN(C)c1oc(-c2ccccc2[N+](=O)[O-])nc1C#N	33	-5
COc1cc(S(=O)(=O)n2ccnc2)ccc1Br	43	5
O=C(c1ccco1)N1CCC(N2CCN(c3ccccc3)CC2)CC1	35	-7
CC(=O)NNc1ncnc2ccccc12	32	-10
COc1ccc(N(CCCN2C(=O)c3cccc4cccc(c34)C2=O)C(=O)c2cccs2)cc1	34	-17
O=C(COC(=O)[C@H](Cc1ccccc1)NC(=O)c1cccs1)NC1CCCCC1	64	3
CCOC(=O)N1CCC(=NNc2ncc(C(F)(F)F)cc2Cl)CC1	32	-22
CCOC(=O)c1c(/N=C/C2=C(O)CC(C)(C)CC2=O)sc2c1CCCC2	35	5
CCCCN(C)CCC(=O)Nc1ccc(F)c(F)c1	75	-21
O=C(CSc1ccc2ccccc2c1Br)Nc1cccc(S(=O)(=O)NC2=NCCCCC2)c1	48	-4

mol	Mtb RmlCD inh	Mtb RmlCD inh retest
C=CCSc1nnc(-c2ccc(Cl)cc2Cl)o1	92	-17
CC1Cc2ccccc2N1C(=O)CNc1ccccc1N1CCCCC1 (stereo not drawn)	110	1
CCOC(=O)C(C)Oc1cccc2c(=O)n(CC(=O)NCc3ccc(F)cc3)ccc12 (stereo not drawn)	40	4
O=C(NCc1ccccc1)C(=O)NCC(c1ccco1)N1CCN(c2ccccc2F)CC1 (stereo not drawn)	33	-2
Cc1nc2cc(NC(=O)C3COc4ccccc4O3)ccc2s1 (stereo not drawn)	46	-27
C(=N\Nc1nn[nH]n1)/c1ccccc1	105	2
CSc1nc(N2CCOCC2)cc(N2CCOCC2)n1	42	10
CC(C)CNC(=O)/C=C/c1cccs1	44	5

# Next part (two carried over from the part before).
mol	Mtb RmlCD inh	Mtb RmlCD inh retest
CSc1nc(N2CCOCC2)cc(N2CCOCC2)n1	42	10
CC(C)CNC(=O)/C=C/c1cccs1	44	5
COc1nc2c(c(-c3cc(Br)cs3)c1C#N)Cc1ccccc1-2	31	0
O=C(CN1CCN(Cc2ccc(Cl)cc2)CC1)N/N=C/C=C/c1ccccc1[N+](=O)[O-]	49	9
CC(C)c1ccc(N2C(=O)NC(=O)/C(=C/c3cnc(-c4ccccc4)nc3)C2=O)cc1	62	6
CCOc1ccc(CC(=O)NNC(=O)/C=C/C(=O)O)cc1	36	2
CC(=O)Nc1c(O)nc(SC/C=C/CSc2nc(O)c(NC(C)=O)c(=O)[nH]2)[nH]c1=O	40	-6
CCCC(=O)Nc1nnc(SCC(=O)NCc2ccco2)s1	65	9
C/C(CCc1oc2ccccc2c1-c1ccc(C)o1)=N/O	60	-18
O=c1[nH][nH]c(-c2ccccc2O)c1C(C[N+](=O)[O-])c1cccc(Cl)c1 (stereo not drawn)	31	-3

mol	Mtb RmlCD inh	Mtb RmlCD inh retest
CN1CCC(NC(=O)Nc2ccc(Br)cc2)CC1	58	-19
Nc1nc(-c2ccc(Cl)cc2)nc(-c2ccc(Cl)cc2)n1	48	7
Cc1c(Cl)c(C(F)(F)F)nn1CC(=O)NCc1ccco1	51	-5
CCC(=O)OCCNc1nc(-c2ccccc2)nc2ccccc12	38	4
N/C(=N\c1nc(CSc2nc3ccccc3s2)cc(=O)[nH]1)Nc1ccc(F)cc1	36	3
O=C(Nc1ccc(Cl)cc1)N1CCc2ccccc2C1	65	0
Cc1cccc(C(O)(C(=O)NNc2ccc3ccccc3n2)c2cccc(C)c2)c1	51	-1
O=C(c1csc2ccccc12)n1cccn1	42	3

mol	Mtb RmlCD inh	Mtb RmlCD inh retest
COCCCNC(=O)CCC(=O)NNc1nc2ccccc2c2nc(-c3ccccc3)nn12	50	-3
O=C(Nc1cccc(S(=O)(=O)NC2=NCCCCC2)c1)c1cc(-c2ccco2)nc2ccccc12	70	-90
CS(=O)(=O)Nc1ccc(N2CCN(c3ccc(C(F)(F)F)cn3)CC2)nc1	38	5
COc1cc2[nH]c(=S)nc(NCCc3ccc(S(N)(=O)=O)cc3)c2cc1OC	86	11
O=C(N/N=C/c1ccc(OC(F)F)cc1)c1ccc(CSc2nc3ccccc3[nH]2)cc1	91	-1
CC1(C)C([N+](=O)[O-])C(c2ccccc2O)NC(c2ccccc2O)C1[N+](=O)[O-] (stereo not drawn)	44	-17
Cc1c(/C=N/NC(=O)c2cc(=O)[nH]c(=O)[nH]2)c2ccccn2c1C(=O)c1ccccc1	44	14
CCOc1ccc(S(=O)(=O)Nc2cccc(C)c2)c2cccnc12	71	-16

mol	Mtb RmlCD inh	Mtb RmlCD inh retest
CCCCC(=O)NC(NC(=S)N1CCCCCC1)C(Cl)(Cl)Cl (stereo not drawn)	64	5
Cc1ccccc1N1C(=O)CC1(C#N)c1ccc(OCc2ccccc2)cc1 (stereo not drawn)	55	-12
CN(NC(=O)CN1C(=O)c2ccccc2C1=O)C1=NS(=O)(=O)c2ccccc21	61	-3
Cc1nn(C(C)C(=O)N2CCOCC2)c(C)c1[N+](=O)[O-] (stereo not drawn)	74	1
COCCCNC(=S)Nc1cccc2ncccc12	31	-3
O=[N+]([O-])c1cccc(CSc2nc3ccccc3[nH]2)c1	32	-3
Cc1cc(=O)n2[nH]c(C)cc2n1	69	2
CC(=O)Nc1ccc(S(=O)(=O)NCC(=O)NC(C)c2ccc(S(N)(=O)=O)cc2)cc1 (stereo not drawn)	85	-11

mol	Mtb RmlCD inh	Mtb RmlCD inh retest
CC(=O)Nc1cccc(NC(=O)CSc2nc3ccccc3o2)c1	64	5
CC(C)c1ccc(CC(NC(=O)c2ccccc2)C(=O)NCC(=O)O)cc1 (stereo not drawn)	36	-8
O=S(=O)(Nc1nc2ccccc2nc1Nc1ccc2c(c1)OCO2)c1ccc(F)cc1	56	27
Cc1c(O)ccc(NS(=O)(=O)c2ccccc2)c1C	60	-10
N#Cc1c(Nc2ccccc2)c(C=NCCN2CCOCC2)c[nH]c1=O	42	-7
COc1ccc(C(=O)C2CCCN(C(=O)c3n[nH]c4c3CCCC4)C2)cc1OC (stereo not drawn)	65	5
CCCNC(=O)COc1ncnc2sccc12	95	-29
COc1ccc(N(Cc2cc3ccc(C)cc3[nH]c2=O)C(=O)C2CCCO2)cc1 (stereo not drawn)	64	0

# A draw from above in order of SMILES length, smallest number first:
mol	Mtb RmlCD inh	Mtb RmlCD inh retest
O=C(c1csc2ccccc12)n1cccn1	42	3
C=CCSc1nnc(-c2ccc(Cl)cc2Cl)o1	92	-17
CC1CCC(C(C)C)C(OCC[N+](C)(C)C)C1 (stereo not drawn)	34	-5
CCC(=O)OCCNc1nc(-c2ccccc2)nc2ccccc12	38	4
COc1cc2[nH]c(=S)nc(NCCc3ccc(S(N)(=O)=O)cc3)c2cc1OC	86	11

# (list continues)
mol	Mtb RmlCD inh	Mtb RmlCD inh retest
CC1Sc2n(c3ccccc3[n+]2C)N=C1c1ccccc1 (stereo not drawn)	30	4
CCC(=O)Nc1nnc(SCc2ccccc2F)s1	39	0
O=C(COC(=O)CCc1nc2ccccc2n1-c1ccccc1)Nc1ccc(N2CCCCC2)cc1	52	-3
Clc1ccc(-c2c[n+](Cc3ccc(Br)cc3)c3n2CCCCC3)cc1	39	7
Cc1ccccc1C(=O)Nc1ccc(O)cc1C(=O)O	36	-11
O=S1(=O)C[C@H]2NC(=S)N(c3ccccc3)[C@H]2C1	37	-8
C[C@H](NC(=O)NC1CCCc2ccccc21)C(=O)O (stereo partly drawn)	105	-2
O=C(N/N=C/c1ccc(F)cc1)c1c(O)c2ccccc2[nH]c1=O	30	-17

mol	Mtb RmlCD inh	Mtb RmlCD inh retest
CCn1nc(C)c(/C=N/NC(=O)CSc2ccccn2)c1C	53	-16
Cc1ccccc1-c1nnn(CC(=O)Nc2ccc3c(c2)OCCO3)n1	83	-15
N#Cc1c2n(c(=S)n(-c3ccccc3)c1=O)CCCCC2	60	-15
CC1=NN(C(N)=S)C(=O)C1N=Nc1ccc(C)cc1C (stereo not drawn)	38	-5
ClC1(Cl)CC1CSc1ncn[nH]1 (stereo not drawn)	72	14
Cn1nc(C(F)(F)F)c(-c2ccccc2)c1NC(=O)c1nccnc1C(=O)O	46	-13
S=c1nc(-c2ccc(Cl)cc2)[nH][nH]1	35	2
NC(=O)c1cc2c3ccccc3ccn2c1-c1ccccc1	32	-3

mol	Mtb RmlCD inh	Mtb RmlCD inh retest
Cc1nc(C)c(C(=O)NNC(=O)c2ccc(Br)cc2)s1	55	2
Oc1ccc(C2=Nn3c(nnc3-c3ccco3)SC2)cc1O	35	-2
COc1cc(/C=C2\S/C(=N/S(=O)(=O)Cc3ccccc3)NC2=O)c([N+](=O)[O-])cc1OC	52	-28
O=C(Cc1ccccc1Cl)N1CCN(c2ncccn2)CC1	32	-7
Cc1ccc(-c2c[n+](CC(=O)Nc3nc(-c4ccc(F)cc4)cs3)c3n2CCC3)cc1	39	5
O=C(Nc1ccc(F)cc1)Nc1nnc(-c2ccccc2)o1	38	6
CCOc1ccc2nc(/N=C/c3nc(-c4ccccc4)oc3O)sc2c1	94	7
Cc1cc([N+](=O)[O-])nn1CCCC(=O)Nc1sc2c(c1C(N)=O)CCCC2	33	9

mol	Mtb RmlCD inh	Mtb RmlCD inh retest
COc1ccccc1/C=C\C(=O)NCC(=O)N/N=C(\C)Cc1ccccc1	81	-3
NC(=O)c1ccc(NC(=O)c2ccccc2S(=O)(=O)c2ccccc2[N+](=O)[O-])cc1	38	-3
COc1cc([N+](=O)[O-])ccc1NC(=O)COC(=O)C=C(C)C	37	3
CCCn1c(=N)c(C(=O)NCC2CCCO2)cc2c(=O)n3cccc(C)c3nc21 (stereo not drawn)	109*	120*
COc1cccc(/C=N/Nc2ncnc(N)c2[N+](=O)[O-])c1OC	30	4
S=C1NC2(CCS1)Oc1ccccc1C1CC(c3ccccc3)=NN12 (stereo not drawn)	30	-5
CCOC(=O)c1cc(-c2ccc(/C=N\n3cnnc3)o2)ccc1Cl	102	10
CN(C(=O)CC1C(=O)NCCN1Cc1ccc(F)cc1)C1CCOCC1 (stereo not drawn)	32	-4

mol	Mtb RmlCD inh	Mtb RmlCD inh retest
COc1cc(N2C(=O)c3ccccc3C2=O)c(Cl)cc1C(=O)OCC(=O)N1CCOCC1	39	-19
CCOC(=O)c1c(NC(=O)C2=C(C)NC(=S)NC2c2ccc(F)cc2)sc(C)c1C (stereo not drawn)	56	-20
COc1ccccc1N1CCN(C(=O)c2c(C)noc2C)CC1	56	6
CCOc1ccc(C(CC(=O)O)n2cnnn2)cc1OC (stereo not drawn)	35	-5
Cc1nc(CC(=O)c2ccc(O)c(C)c2O)cs1	37	6
CC(C)(C)CC(C)(C)NC(=S)N1CCN(Cc2ccc3c(c2)OCO3)CC1	39	-14
CC(=O)Nc1ccc(S(=O)(=O)Oc2cccc(/C=C3\SC(N)=NC3=O)c2)cc1	83	-31
OCCN(CCO)c1nc(-c2ccccc2)nc2c1oc1ccccc12	44	-6

mol	Mtb RmlCD inh	Mtb RmlCD inh retest
CC(C)(C)C(=O)N(Cc1ccc(Cl)cc1)Cc1cccnc1	40	-7
CC(=O)Nc1cccc(/C(C)=N/NC(=O)c2ccccc2Cl)c1	90	-14
O=C(NCCc1ccccn1)C(F)(F)C(F)(F)C(F)(F)C(F)(F)C(F)(F)C(F)(F)C(F)(F)C(F)F	37	-3
CC(=O)Nc1ccc(C(=O)N(C)C(C(=O)Nc2ccc(C)cc2)c2ccccn2)cc1 (stereo not drawn)	41	11

# Screening results: PubChem, PCMD
